miR-21 FLuc: raises the signal of a miR-21 reporter | 340,000 tested, under 10 active | Potency, µM (highest dose often 38.3 µM), for inactives: at the highest dose reporter change, positive = more light | HeLa miR-21 FLuc reporter, luciferase, 48 h | AID 2288; active = well fitted rising curve with a large enough effect; inconclusive = small, poorly fitted or top-dose-only effect; inactive = no such curve, though single readings can be large or run the other way;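 also: % of control where 0% means no effect; miR-21 action dims this reporter so a rising signal means less miR-21 action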
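HeLa cells endogenously expressing miR-21, stably carrying CMV-driven firefly luciferase with a downstream miR-21 binding site, 2000 cells/well. Titrations up to approximately 40 uM, 48 hours; luciferase luminescence read.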
Active calls of the source: *; ? = inconclusive.

Start of the listing, in advance (3 entries):
Compound	miR-21 FLuc
COc1ccc(C)cc1Nc1c2c(nc3nc(-c4cccs4)nn13)CCCC2	-0.7%
CCc1ccc(Cn2c(CNS(=O)(=O)c3ccc(Cl)s3)nc3cccnc32)cc1	3.4%
Cc1cc(=O)n2nc(N(C)CC(=O)NCc3cccc(Br)c3)sc2n1	-5.5%

The whole of this part, from the first entry:
Compound	miR-21 FLuc
COc1ccc(C)cc1Nc1c2c(nc3nc(-c4cccs4)nn13)CCCC2	-0.7%
CCc1ccc(Cn2c(CNS(=O)(=O)c3ccc(Cl)s3)nc3cccnc32)cc1	3.4%
Cc1cc(=O)n2nc(N(C)CC(=O)NCc3cccc(Br)c3)sc2n1	-5.5%
COc1ccc(-c2nc3sc(CCNC(=O)c4cc(OC)c(OC)c(OC)c4)c(C)n3n2)cc1	-0.6%
COc1ccccc1Nc1nc(C)nc(N)c1S(=O)(=O)c1ccccc1	3.6%
CCc1ccc2ncc3c(-c4ccc(F)cc4)nn(CC(=O)NC4CCCCC4)c3c2c1	-1.5%
COC(=O)C1=C(C)NC(=O)C1(NC(=O)c1ccc(Cl)cc1)C(F)(F)F (stereo not drawn)	-1.4%
COc1ccccc1CNC(=O)Cc1csc2nc(-c3ccc(Cl)cc3)cn12	-3.1%
Cc1ccc(N2CC(NC(=O)c3ccco3)CC2=O)cc1 (stereo not drawn)	2.5%
COc1ccc(Cl)cc1NC(=O)Cn1c(=O)n(CCCC(=O)NCCc2ccc(OC)c(OC)c2)c(=O)c2ccccc21	-3.4%
Cc1ccc(-c2nc3cc(NC(=O)c4cc5ccccc5o4)ccc3o2)cc1	-2.5%
Cc1ccc(NC(=O)c2oc3ccc(S(=O)(=O)N4CCC5(CC4)OCCO5)cc3c2C)c(C)c1	?
CCC(=O)N1CCc2cc(S(=O)(=O)CCC(=O)NCc3ccc(F)cc3)ccc21	17.5%
COc1cc(C(=O)Nc2ccc(-c3cc(C(F)(F)F)nn3-c3ccccc3)cc2)cc(OC)c1OC	?
COC(=O)CCCn1c(-c2ccc(C)cc2)c(C)n2c3c(=O)n(C)c(=O)n(C)c3nc12	-2.6%
Cc1cccc(C)c1NC(=O)Cn1c(=O)n(CC2CCC(C(=O)NCCc3ccccc3)CC2)c(=O)c2ccccc21 (stereo not drawn)	-4.3%
Cc1cc(C)cc(NC(=O)C2CCCN2S(=O)(=O)c2cccc3nsnc23)c1 (stereo not drawn)	-8.1%
CCn1cc(C(=O)NCCc2ccc(OC)c(OC)c2)c(=O)c2cc(S(=O)(=O)N3CCc4ccccc4C3)ccc21	2.4%
CCCCC12CN3CC(C)(CN(C1)C3c1c[nH]c3ccccc13)C2=O (stereo not drawn)	11.3%
COc1ccc(NC(=O)Nc2cc(-c3cn4cccnc4n3)ccc2OC)cc1	-25.4%
COc1ccc(N2CC(c3nc(-c4ccccc4C)no3)CC2=O)cc1Cl (stereo not drawn)	-5.0%
Cc1cc(-c2ccc(C)c(S(=O)(=O)NCCc3ccccc3)c2)on1	-16.2%
COc1ccc(OC)c(-c2noc(N3CCN(c4ccc(C(C)=O)cc4)CC3)n2)c1	-4.7%
CCOc1ccc(NC(=O)CSc2ncc3c(n2)-c2ccccc2N(C)S3(=O)=O)cc1	2.3%
CCc1c(C)sc(NC(=O)c2cc(-c3cccc(Cl)c3)on2)c1C#N	-0.9%
Cc1cccc(C)c1OCc1nc2c3cnn(-c4ccccc4F)c3ncn2n1	0.4%
COc1cc(OC)c(C2Nc3ccccc3-c3nnc(SCc4ccccc4)nc3O2)cc1OC (stereo not drawn)	-6.3%
CCN(C(=O)C1CCN(S(=O)(=O)c2ccc3c(c2)CCCN3C(=O)C2CCC2)CC1)c1cccc(C)c1	?
CN(C)c1cccc(C(=O)Nc2nc3ccc(S(=O)(=O)N4CCCC4)cc3s2)c1	-7.5%
CCN(CC)CCOC(=O)c1ccc(NC(=O)Cn2ncc3c([nH]c4ccc(C)cc43)c2=O)cc1	1.1%

Continuation:
Compound	miR-21 FLuc
COc1cccc(-c2ccc3c(N)c(C(=O)c4ccc(F)cc4)sc3n2)c1	-18.1%
CCOC(=O)N1CCN(Cc2nc3cc(NC(=O)CC(C)C)ccc3n2C(C)C)CC1	28.5%
CCOC(=O)c1cnc2c(ccc3ccccc32)c1Nc1ccc(Cl)cc1	2.8%
CC(=O)Nc1ccc(NC(=O)CCc2nc3cccnc3n2Cc2cccs2)cc1	0.3%
CCOC(=O)c1ccc(NC(=O)CC(=O)Nc2ccc3nc4n(c(=O)c3c2)CCCCC4)cc1	15.8%
OCCN1CCN(C(c2ccccc2Cl)c2sc3nc(-c4ccco4)nn3c2O)CC1 (stereo not drawn)	5.1%
COc1ccc(NC(=O)C2CCN(c3nc4ccccc4nc3C(F)(F)F)CC2)cc1	0.2%
CCC(=O)OC1=C(C(C)=O)N(Cc2ccccc2)S(=O)(=O)c2ccccc21	-7.4%
CCC(C(=O)Nc1cc(-c2cn3cccnc3n2)ccc1C)c1ccccc1 (stereo not drawn)	-10.7%
Cc1ccc(C)c(NC(=O)CSc2nccn2-c2cccc(C)c2C)c1	0.8%
COc1ccc(CNC(=O)c2oc3c(c2C)-c2nn(Cc4ccc(Cl)cc4)cc2CC3)cc1	-0.3%
CC(=O)c1ccc(NC(=O)CCOc2ccccc2)cc1	-44.6%
CCc1cccc(C)c1NC(=O)c1cn2c3c(ccc(Cl)c3c1=O)OC(C)C2 (stereo not drawn)	-6.6%
Cc1ccc(-n2c3c(cc(C(=O)Nc4cccc(Cl)c4)c2=O)C(=O)CC(C)(C)C3)cc1	-3.4%
CCOC(=O)c1c(NC(=O)COc2cccc(C)c2C)sc2c1CCCCC2	0.9%
CC(C)c1ccc(Nc2ncnc3c2c(-c2ccccc2)cn3-c2ccccc2)cc1	0.2%
Cn1cc(C(=O)NCc2ccc(Cl)cc2)c(=O)c2cc(S(=O)(=O)N3CCCCCC3)ccc21	-4.5%
CCN(CC)c1cc2c(cc1F)c(=O)c(S(=O)(=O)c1ccccc1)cn2Cc1ccccc1	11.8%
CSc1ccc(CCNC(=O)c2sc3ncccc3c2-n2cccc2)cc1	8.7%
COc1cccc(Nc2nc3ccccc3c3nncn23)c1	-15.3%
CCOc1ccc(NC(=O)N2CC3CCCN3c3ccccc32)cc1 (stereo not drawn)	20.7%
Cc1ccc(NC(=O)CN2C(=O)c3ccccc3Sc3ncccc32)c(C)c1	-2.7%
CCOC(=O)c1ccc(NC(=O)C2Cc3ccccc3CN2S(=O)(=O)c2ccc(Cl)cc2)cc1 (stereo not drawn)	29.1%
COC(=O)CN1C(=O)C(C)(C)c2cc(S(=O)(=O)Nc3ccc(C(C)C)cc3)ccc21	0.9%
COc1ccc(NC(=O)CSc2nccn2Cc2ccc3c(c2)OCO3)cc1	-3.2%
COc1ccccc1-c1cc2nc(C)c(CCC(=O)Nc3cc(C)ccc3C)c(C)n2n1	8.7%
COc1ccc(Cn2nc3n(c2=O)-c2ccccc2OC3)cc1	-25.9%
COc1cccc(-n2c(SCc3cccc(C)c3)nc3c([nH]c4ccccc43)c2=O)c1	15.7%
COc1cccc(NCc2cccn2-c2nnc(N3CCC(C)CC3)s2)c1	-7.3%
COc1cc(NC(=O)C2Cc3ccccc3N2C(=O)c2ccccc2)cc(OC)c1 (stereo not drawn)	-1.3%

As entered above:
COc1cccc(NCc2cccn2-c2nnc(N3CCC(C)CC3)s2)c1 | miR-21 FLuc = -7.3%
CCC(=O)OC1=C(C(C)=O)N(Cc2ccccc2)S(=O)(=O)c2ccccc21 | miR-21 FLuc = -7.4%
Cc1ccc(C)c(NC(=O)CSc2nccn2-c2cccc(C)c2C)c1 | miR-21 FLuc = 0.8%
OCCN1CCN(C(c2ccccc2Cl)c2sc3nc(-c4ccco4)nn3c2O)CC1 (stereo not drawn) | miR-21 FLuc = 5.1%

New compounds follow.
SMILES,miR-21 FLuc
CC(C)OCCCNC(=O)CN1C(=O)CSc2ccc(S(=O)(=O)N3CCOCC3)cc21,-2.5%
Cc1c(Cl)cccc1Nc1nn2c(=O)c3ccc(C(=O)N(C)Cc4ccccc4)cc3nc2s1,-10.7%
COc1cc(OC)c(OC)cc1/C=C/c1nc2cc3ccccc3cc2c(=O)n1-c1ccc(Cl)cc1,-0.7%
CCCCCOc1ccc(Cn2c(=O)oc3ccc(C)cc32)cc1OC,-9.6%
COC(=O)c1ccc(OCC2c3cc(OC)c(OC)cc3CCN2C(=O)c2ccc(OC)cc2)cc1 (stereo not drawn),-0.1%
COc1ccc(Cl)cc1C(=O)Nc1ccc(-c2nnc3n2CCCCC3)cc1,-2.4%
Cc1cccc(NC(=O)CSc2ccc(-c3ccccn3)nn2)c1,-5.6%
CCOC(=O)c1c(NC(=O)C(C)Sc2cn(CCNC(=O)c3ccc(OC)c(OC)c3)c3ccccc23)sc2c1CCC2 (stereo not drawn),-13.5%
CCOc1cc2c(cc1OCC)C(c1c(F)cccc1Cl)CC(=O)N2 (stereo not drawn),2.3%
COc1cc2c(C(=O)N3CCN(c4ccc(C)cc4)C(C)C3)cn(CC(C)C)c(=O)c2cc1OC (stereo not drawn),12.4%
COc1cccc(-c2nn(C)c3sc(C(=O)N4CCN(c5cccc(C(F)(F)F)c5)CC4)cc23)c1,20.8%
CCN(Cc1ccccc1)Cc1c(O)ccc2c(=O)c(-c3ccccc3OC)c(C(F)(F)F)oc12,9.9%
Cc1cccc(NS(=O)(=O)c2ccc3c(c2)CC(C)N3C(=O)C2CCC2)c1C (stereo not drawn),19.3%
CC(C)c1ccc(Nc2cc(C(=O)NCc3cccs3)c3ccccc3n2)cc1,-1.1%
COc1cccc(NC(=O)C2CCCN(S(=O)(=O)c3c(C)nn(C)c3C)C2)c1 (stereo not drawn),-1.1%
COc1ccc(-c2cc(-c3ccccc3)nc3c2COc2ccc(Cl)cc2-3)cc1,-0.8%
Cc1ccc(COc2cccc3cc(-c4noc(-c5ccc(C)cc5)n4)c(=O)oc23)cc1,0.4%
CN(Cc1ccccc1)C(=O)c1cc2c(s1)-c1ccc(Cl)cc1SC2,-15.1%
CC1CCN(S(=O)(=O)c2ccc3c(c2)N(CC(=O)NCCN(C)C)C(=O)CS3)CC1,2.5%
COc1cc(C2c3c(oc4ccccc4c3=O)C(=O)N2c2nnc(C(C)C)s2)cc(OC)c1OC (stereo not drawn),-2.0%

Carrying on:
SMILES,miR-21 FLuc
Cc1cc2nn(-c3ccccc3)nc2cc1NC(=O)Cc1ccc(Cl)cc1,-42.7%
COc1ccc(NC(=O)Cn2c(=O)n(Cc3ccccc3Cl)c(=O)c3cc(OC)c(OC)cc32)cc1OC,-7.5%
CCOCCc1nn2c(=O)cc(COC(=O)c3ccccc3OC)nc2s1,-7.1%
CCCCN(C)c1nc2c(S(=O)(=O)c3ccc(CC)cc3)nnn2c2ccc(Cl)cc12,-3.7%
CCOc1ccc(CNC(=O)C2CCN(C(=O)N3CC(CC)Oc4ccccc43)CC2)cc1 (stereo not drawn),-17.6%
CCOc1ccc(NC(=O)Cn2c(=O)n(CCc3ccccc3)c(=O)c3c4c(sc32)CCCC4)cc1,2.5%
COc1ccccc1CNC(=O)CSc1ccc(-c2sc(-c3ccccc3)nc2C)nn1,1.3%
COC(=O)c1sccc1S(=O)(=O)N(CC(=O)Nc1cc(C)cc(C)c1)c1ccc(Cl)cc1,19.6%
Cc1nnc(SCC(=O)NCc2ccc(N(C)C)cc2)c2nn(-c3ccccc3)c(C)c12,0.2%
Fc1ccc(-c2nn(-c3ccccc3Cl)c3c2cnc2ccccc23)cc1,1.1%
O=C1CSC2(C(=O)N(Cc3ccccc3)c3ccccc32)N1c1cccc(F)c1 (stereo not drawn),3.3%
Cc1ccc(OCC(=O)Nc2cccc(C(=O)OCc3cc(=O)n4cc(C)sc4n3)c2)cc1,-55.8%
COc1ccc(Cn2c(=O)c3cccnc3n(CC(=O)Nc3ccc(C)c(F)c3)c2=O)cc1,-5.6%
CCN(CC)c1ccc(NC(=O)C2COc3ccc(OC)cc3C2)c(C)c1 (stereo not drawn),-3.6%
CCCCc1nn2c(=O)cc(COC(=O)c3ccc(NC(=O)c4cccs4)cc3)nc2s1,1.6%
CCOC(=O)c1ccccc1NC(=O)Cn1c(=O)n(Cc2nc(C)no2)c(=O)c2ccccc21,2.1%
O=C(Cn1nnc(-c2ccc(Cl)cc2)n1)NCc1ccc(F)cc1,-1.6%
O=C(COc1ccccc1F)Nc1ccc2nc(SCc3ccccc3)sc2c1,-16.5%
CN(C(=O)CSc1nnc2[nH]c(=O)cc(-c3ccccc3)n12)c1ccccc1,0.8%
COc1cc(OC)c(NC(=O)Cn2c(=O)nc(-c3ccccc3)c3ccccc32)cc1Cl,5.3%

Three compounds out of the list, sorted by heavy-atom count, rising.
SMILES,miR-21 FLuc
O=C(COc1ccccc1F)Nc1ccc2nc(SCc3ccccc3)sc2c1,-16.5%
Cc1ccc(OCC(=O)Nc2cccc(C(=O)OCc3cc(=O)n4cc(C)sc4n3)c2)cc1,-55.8%
CCOC(=O)c1ccccc1NC(=O)Cn1c(=O)n(Cc2nc(C)no2)c(=O)c2ccccc21,2.1%

Remaining list, next part
SMILES,miR-21 FLuc
CCOc1ccccc1NC(=O)C(CC)Sc1nc2ncccc2[nH]1 (stereo not drawn),-1.9%
Cc1ccccc1OCCSc1nc2ccc(NC(=O)c3cccs3)cc2s1,?
Cc1cccc(Cn2nnc3c(=O)[nH]c(C4CCN(C(=O)c5ccccc5F)CC4)nc32)c1,-9.5%
Cc1ccc(C)c(N2CCN(C(=O)c3ccc4c(c3)N(Cc3ccc(F)cc3)C(=O)c3ccccc3S4=O)CC2)c1 (stereo not drawn),11.4%
Cc1cccc(NC(=O)c2c(Br)sc3c2CCCC3)c1,-7.3%
CC(=O)N1CCc2c(sc3c2c(=O)n(-c2ccc(C)cc2)c(=O)n3CC(=O)Nc2ccccc2)C1,-0.2%
CCOc1ccc(C(=O)Nc2ccccc2C(=O)OCc2cc(=O)n3nc(C4CC4)sc3n2)cc1,0.2%
CCCNC(=O)c1ccc2c(c1)N(Cc1cccc(C)c1)C(=O)c1ccccc1S2,-6.5%
COc1cc(CNCCSc2nnnn2C)cc(Cl)c1OCc1ccccc1,9.2%
Cc1[nH]c(=O)[nH]c(=O)c1S(=O)(=O)N1CCN(c2ccccc2Cl)CC1,2.0%

Screens (PubChem)

An excerpt (hit frequency here may not be typical).
